AF4-AF9 inh = blocks AF4 peptide binding to human AF9; AlphaScreen, biotin-AF4 peptide binding to FLAG-AF9; inhibition, % at 10 µM; 0.47% of 350,000 active; AID 651704;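 active = every replicate reaching a set inhibition limit, whatever the replicate mean, cut at about 25% in these data; inconclusive = mean inhibition reaches that limit but some replicates miss it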;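 also: 0% = plate neutral control median and 100% = total signal loss; the record names both 10 and 1 µM as test concentration; the first replicate is given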
Target sequence (P42568 whole entry, looked up): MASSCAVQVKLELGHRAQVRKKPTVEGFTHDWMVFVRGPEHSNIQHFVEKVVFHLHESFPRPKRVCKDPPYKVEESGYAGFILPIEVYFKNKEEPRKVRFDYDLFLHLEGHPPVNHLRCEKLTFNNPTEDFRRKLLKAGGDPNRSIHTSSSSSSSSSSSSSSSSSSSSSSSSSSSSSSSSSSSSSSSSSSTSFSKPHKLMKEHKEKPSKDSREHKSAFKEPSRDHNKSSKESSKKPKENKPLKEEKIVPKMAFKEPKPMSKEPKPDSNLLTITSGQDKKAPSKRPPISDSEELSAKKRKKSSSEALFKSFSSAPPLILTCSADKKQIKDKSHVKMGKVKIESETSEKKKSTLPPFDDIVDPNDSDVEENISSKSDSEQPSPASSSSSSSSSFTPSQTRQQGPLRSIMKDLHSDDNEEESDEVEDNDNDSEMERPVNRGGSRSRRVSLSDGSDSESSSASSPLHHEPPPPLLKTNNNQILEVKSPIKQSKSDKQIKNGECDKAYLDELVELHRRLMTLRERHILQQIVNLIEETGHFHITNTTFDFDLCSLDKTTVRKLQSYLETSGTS
Vif A3G = inhibitors of Vif binding to APOBEC3G peptide, primary screen, biochemical, TR-FRET, GST-Vif 1-94, biotin-A3G peptide, dose response retest (AID 1117319) | TR-FRET GST-Vif / biotin-A3G peptide binding; higher % means a stronger effect; test concentration not given here; strong numbers were not always called active | one-dose inhibition, %; IC50 in µM for titrated hits | 0.57% of 260,000 active;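 active = above the screen mean plus three standard deviations and confirmed in dose response; inconclusive = results disagree or hit not tested in dose response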;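 also: Vif residues 1-94 fused to GST binding biotinylated APOBEC3G peptide 110-148; 0% = full assay without inhibitor and 100% = GST in place of GST-Vif; retest series ran down from 100 µM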
Starred values were filed as active, the others as inactive; ? = inconclusive; & = joins results of further samples.

AF4-AF9 inh | Vif A3G | compound
-0.3 | 4% | CC(C)CC1NC(=O)c2cc3ccccc3cc2-n2c1nc1ccc(F)cc1c2=O (centres undefined)
-4.9 | -7% | Cc1ccc(C2(C)NC(=O)N(CC(=O)N3CCN(C(=O)c4cccs4)CC3)C2=O)cc1 (centres undefined)
-1.2 | 2% | CC(=O)OC1CCC2(C)C3=CCC4(C)C(C(C)=O)=CCC4C3CCC2C1 (centres undefined)
-1.2 | -2% | CCCCN1CCC(=O)C(C(=O)OCC)=C1C(=O)OCC
-1.4 | -3% | COc1ccc(CNC(=O)C[C@H]2C[C@H](C(=O)N3CCOCC3)[C@@]3(C)c4[nH]c5cc(CCC(=O)N(C)C)ccc5c4CCN3C2=O)cc1OC
-0.1 | -2% | Cc1c(Cl)cccc1NS(=O)(=O)c1ccccc1
3.5 | 0% | CC(C)CC1NC(=O)C(CC(C)C)N(CO)C1=O (centres undefined)
-20 | -1% | COc1cccc(N2CCN(c3ccc(S(=O)(=O)N4CCCC4)cc3)CC2)c1
-2.3 | -2% | O=C(OCc1cn([C@@H]2CN(CC3CCCCC3)[C@@H](c3ccccc3)C[C@H]2O)nn1)c1ccccc1
1.9&0.1&4.3 | 2% | C[C@@H]1CCCCO[C@@H](CN(C)C(=O)Cc2ccccc2)[C@@H](C)CN([C@H](C)CO)C(=O)c2cc(N(C)C)ccc2O1
2.6 | -3% | COC1C(CO)OC(n2c3c(Cl)cccc3c3c4c(c5c6cccc(Cl)c6[nH]c5c32)C(=O)NC4=O)C(O)C1O (centres undefined)
-4.6 | -8% | CN(C)c1ncnc2c1ncn2-c1ccccc1
-6.8 | 0% | CCOC(=O)c1c(O)cc(OC)cc1CCc1ccccc1
-3.2 | -1% | O=C(NCCCc1ccccc1)c1cccc(NC(=O)C2CCCC2)c1
-3.1 | -3% | Cc1ccc(S(=O)(=O)N2C[C@H]3C(=O)C[C@@H](c4cccc(Cl)c4)N(S(=O)(=O)c4ccc(C)cc4)[C@H]3C[C@H]2c2ccccc2)cc1
-6.0 | 2% | O=C(O)c1ccc(CNC(=O)c2ccc(S(=O)(=O)N3CCCC3)cc2)cc1
-2.0 | 6% | Cc1ccc(OCc2cc(C(=O)N(C)C3CCCc4ccccc43)no2)cc1C (centres undefined)
-1.5 | 2% | O=C(O)c1sc(C(=O)O)c(-c2ccccc2)c1-c1ccccc1
-3.0 | -5% | COc1ccc(CN2C(=O)C(CC(=O)NCCCN(C)C)CC(C(=O)N(C(C)C)C(C)C)=C2C)cc1 (centres undefined)
-0.6 | 3% | CCC[C@H]1CN(c2ccc(OC)cc2)C(=O)[C@@H]1CC(=O)Nc1ccccc1

5 compounds already listed, sorted by molecular weight, lowest first.
AF4-AF9 inh | Vif A3G | compound
-4.6 | -8% | CN(C)c1ncnc2c1ncn2-c1ccccc1
-6.8 | 0% | CCOC(=O)c1c(O)cc(OC)cc1CCc1ccccc1
-1.5 | 2% | O=C(O)c1sc(C(=O)O)c(-c2ccccc2)c1-c1ccccc1
-1.2 | 2% | CC(=O)OC1CCC2(C)C3=CCC4(C)C(C(C)=O)=CCC4C3CCC2C1 (centres undefined)
2.6 | -3% | COC1C(CO)OC(n2c3c(Cl)cccc3c3c4c(c5c6cccc(Cl)c6[nH]c5c32)C(=O)NC4=O)C(O)C1O (centres undefined)

Remaining list, next part
AF4-AF9 inh | Vif A3G | compound
-2.2 | 2% | CC(=O)OC1C(OC(C)=O)C2C(C)CC3OC(=O)C(C)C3CC2(C)C1OC(C)=O (centres undefined)
-1.6 | 1% | Cc1cc(C(=O)CN2C(=O)C(=O)N(C3CCCC3)C2=O)c(C)n1CCc1ccccc1
-4.5 | 12% | C=C1C(=O)OC2C1CCC(C)C1C=CC(=O)C12C (centres undefined)
-1.5 | -2% | O=C(O)CNC(=O)C1(N2C(=O)c3ccccc3C2=O)CCCC1
-2.1 | 0% | CCOC(=O)N1CC(C)N(C(=S)Nc2ccccc2)CC1C (centres undefined)
-0.7 | -3% | CCOC(=O)c1cc2c(c(-c3ccccc3)n1)[C@H](CCO)N(S(=O)(=O)C(C)(C)C)C2
-0.1 | 0% | Cn1c(N)c(C(=O)COC(=O)Cc2ccc(Cl)cc2)c(=O)n(C)c1=O
2.3 | -2% | CC1(CSc2ccccc2)CC(=O)N1 (centres undefined)
-1.5 | -14% | CCC(CC)C(=O)Oc1c(C(=O)N(C)C)cccc1-c1ccccc1
0.6 | -4% | COC(=O)[C@@]1(Cc2ccccc2)[C@H]2C(=O)N(Cc3ccccc3)C(=O)[C@H]2[C@H]2CN=C(SC)N21
-5.0 | 7% | N#Cc1ccccc1OCC(=O)NCC(c1ccc(F)cc1)N1CCOCC1 (centres undefined)
-6.8 | 1% | CC(=O)c1cc2c(cc1NC(=O)CSc1nnc(C3CC3)n1C)OCO2
2.0 | -2% | CC(OC(=O)c1ccc(Cl)cc1)C(=O)NCc1ccc2c(c1)OCO2 (centres undefined)
0.9 | 2% | Cc1noc(C)c1COc1ccccc1C(=O)N1CCN(S(=O)(=O)c2cccc(Cl)c2)CC1
-2.2 | 10% | CCOC(=O)C(C(=O)OCC)C(=O)c1cccc2ccc3ccccc3c12
4.6&0.3 | -5% | C[C@H](CO)N1C[C@H](C)[C@H](CN(C)S(=O)(=O)c2ccc3c(c2)OCCCO3)OCc2cnnn2CCCC1=O
-3.5 | 6% | CC1CCCCC12NC(=O)N(CC(=O)N1CCN(S(=O)(=O)c3cccs3)CC1)C2=O (centres undefined)
-0.1 | 2% | COc1ccc(C(=O)NCCCN2CCN(CCCNC(=O)c3ccc(OC)c(OC)c3)CC2)cc1OC
-5.4 | -3% | CCN(CC)C(=O)[C@H]1CC(CC(=O)NCc2cccc(C(F)(F)F)c2)C(=O)N2CCc3c([nH]c4ccc(OC)cc34)[C@]12C (some centres undefined)
-7.3 | 2% | Cc1ccccc1OCC(=O)OCC(=O)Nc1ccc(Cl)cn1
0.8 | -4% | CC(C(=O)N(C)Cc1cccc(F)c1)N1CCN(S(=O)(=O)c2ccc3c(c2)OCCCO3)CC1 (centres undefined)
-1.2 | -7% | CC(=O)N1c2ccccc2S(=O)(=O)c2c1ccc1ccccc21
-17 | 1% | CCN(C[C@H]1N[C@@](Cc2ccccc2)(C(=O)OC)[C@H]2C(=O)N(Cc3ccccc3)C(=O)[C@@H]12)S(=O)(=O)c1ccc(C)cc1
-0.7 | 3% | O=C(Cn1cnc2ccc(Cl)cc2c1=O)NC1CCS(=O)(=O)C1 (centres undefined)
-2.5 | ? | CC(=O)OCC1=C(C(=O)O)N2C(=O)[C@@H](NC(=O)CSc3ccncc3)[C@H]2SC1
-1.1 | -3% | O=C(O)c1ccc(C=NN2CCCCCC2)cc1
13 | 0% | C=CCN(c1ccccc1)S(=O)(=O)c1cccc(C(=O)Nc2ccc(N3CCOCC3)cc2)c1
-2.7 | 4% | COC(=O)C(CC(C)C)N(Cc1cc(OC)cc(OC)c1)S(=O)(=O)c1ccccc1Br (centres undefined)
-34 | -6% | O=C(NN=Cc1ccc2c(c1)OCO2)C1CC1
-1.4 | 2% | Cc1ccc(S(=O)(=O)N2CCN(c3ncnc4sccc34)CC2)cc1C
-3.5 | -9% | CCN(CC(=O)NCc1cccs1)C(=O)c1ccc(-c2ccccc2F)o1
-1.5 | 6% | O=C(O)c1cscc1Cc1cccs1
-2.5 | -4% | O=C(CCNS(=O)(=O)c1ccc2ccccc2c1)NCCOc1ccccc1
1.1 | 1% | COC(=O)[C@H]1C[C@H]2[C@@H]3CC[C@H]4C[C@@H](OC)CC[C@]4(C)[C@H]3CC[C@]2(C)[C@@]2(CCCO2)O1
-3.2 | -5% | O=C1CCCC(=O)N1CCCCCCN1C(=O)CCCC1=O
3.4 | -3% | O=c1[nH]nc(-c2ccc([N+](=O)[O-])o2)c(=O)[nH]1
-1.8 | 4% | CCN1C(=O)CSC1=Nc1ccc(C(=O)OC)cc1
-2.6 | -3% | COc1cccc(CN2CC(C(=O)NCCc3cn4cccnc4n3)CCC2=O)c1 (centres undefined)
-0.9 | 5% | COc1ccc(C(=O)NCCCC2CCCC2)cc1OC1CCN(C(C)C)CC1
1.1 | -4% | Cc1ccn(CC(=O)N2CCCC(N3CCN(c4cccc(C(F)(F)F)c4)CC3)C2)n1 (centres undefined)
-1.9 | -3% | c1ccc(Cc2nc3ccccc3s2)cc1
? | -2% | CCOC(=O)C1CCCN(C(=O)c2ccc(NS(=O)(=O)c3ccc4[nH]c(=O)[nH]c4c3)cc2)C1 (centres undefined)
5.1 | 4% | Cc1ncc(CO)n1Cc1ccc(Cl)cc1
20 | -10% | CC[C@@H](C)[C@@H]1CN([C@@H](CN2CCC[C@H]2CN2C(N)=NC[C@H]2CC(C)C)C(C)C)C(=N)N1CCc1ccc(Cl)c(Cl)c1
0.4 | 1% | Cc1ccc(S(=O)(=O)NCc2ccccc2)cc1C(=O)NCc1ccncc1
-11 | 6% | CCOc1ccc2oc(C(=O)OCC(=O)NCC3CCCO3)c(C)c2c1 (centres undefined)
-0.5 | 6% | CSc1nc(=O)[nH]nc1Sc1ccccc1
-2.1 | -3% | O=C(NCc1ccncc1)Nc1ccc(Cc2ccc(NC(=O)NCc3ccncc3)cc2)cc1
-3.9 | 0% | Cn1c(=O)c2c(ncn2CC(=O)OCC(=O)c2ccc(Br)cc2)n(C)c1=O
-4.1 | 19% | CCOc1ccc(Cc2c(O)nc(SC)[nH]c2=O)cc1
2.2 | 1% | CCOC(=O)c1[nH]c(=S)n(-c2ccccc2)c1C(=O)OCC
-0.4 | 11% | Cc1ccc(NC(=O)Cc2nc(COC(=O)Cc3cccc(C(F)(F)F)c3)cs2)cc1
-3.4 | 4% | CC(C)(C)NC(=O)C1(N2C(=O)c3ccccc3C2=O)CCCC1
-1.8 | -6% | Cc1cc(C(=O)COC(=O)Cc2c(F)cccc2Cl)c(C)n1C
-0.3 | 1% | Cn1c(=O)c2c(ncn2CCOC(=O)C(C)(C)Oc2ccc(Cl)cc2)n(C)c1=O
-3.3 | -10% | CSc1ncc2[nH]c(C(O)c3ccccc3)nc2n1 (centres undefined)
? | 1% | COc1ccc(N=CC2CCCCC2=O)c([N+](=O)[O-])c1 (centres undefined)
2.4 | -2% | CC1CN(S(=O)(=O)c2cccc(C(=O)Nc3ccccc3N3CCOCC3)c2)CC(C)O1 (centres undefined)
-4.0 | 4% | Cc1cccc(C)c1NC(=O)CN(c1c(C)cccc1C)S(C)(=O)=O
8.0 | -3% | Cc1ccc(CN(C)C(=O)C2CCN(C(=O)Nc3ccccc3)CC2)o1

The closing five records of the part above lead into the next:
AF4-AF9 inh | Vif A3G | compound
-3.3 | -10% | CSc1ncc2[nH]c(C(O)c3ccccc3)nc2n1 (centres undefined)
? | 1% | COc1ccc(N=CC2CCCCC2=O)c([N+](=O)[O-])c1 (centres undefined)
2.4 | -2% | CC1CN(S(=O)(=O)c2cccc(C(=O)Nc3ccccc3N3CCOCC3)c2)CC(C)O1 (centres undefined)
-4.0 | 4% | Cc1cccc(C)c1NC(=O)CN(c1c(C)cccc1C)S(C)(=O)=O
8.0 | -3% | Cc1ccc(CN(C)C(=O)C2CCN(C(=O)Nc3ccccc3)CC2)o1
-4.8 | -2% | Cc1c(NC(=O)CSc2nnc(-c3ccncc3)n2C)c(=O)n(-c2ccccc2)n1C
0.2 | 5% | CC(=O)N(CC#CCN(C(C)=O)c1ccccc1)c1ccccc1
1.0&-5.0 | -5% | C[C@@H]1CCCCO[C@H](CN(C)Cc2ccc(C(=O)O)cc2)[C@@H](C)CN([C@H](C)CO)C(=O)c2cc(NC(=O)CCC(F)(F)F)ccc2O1
3.5 | 2% | Cc1ccccc1CN1C[C@H]2CON(C)[C@H]2C[C@H]1c1cccc(Br)c1
0.5 | -2% | Cc1ccc(S(=O)(=O)Nc2ccc(-n3cnnn3)cc2)c(C)c1
-1.6 | -7% | OC1Cc2ccccc2C1Nc1cccc(C(F)(F)F)c1 (centres undefined)
-0.8 | 4% | CCC(C)C(=O)C(=O)N1CCC(n2nccc2NC(=O)CCOc2ccccc2)CC1 (centres undefined)
-4.3 | 6% | COc1ccc(Cl)cc1NC(=O)CN(C)CC(=O)Nc1cccc(S(=O)(=O)N2CCCC2)c1
-6.0 | -8% | CC(C)[C@H](NC(=O)c1c(F)cccc1F)C(=O)OCC(=O)NNC(=O)c1ccccc1
-0.2 | 24% | O=C(CCNC(=O)c1ccc([N+](=O)[O-])cc1)Nc1nc2ccccc2[nH]1
-1.5 | -4% | CNC1(C(N)=O)CCN(Cc2ccccc2)CC1
-1.9 | 2% | OC(CN1CCCCC1)c1ccc(Br)cc1 (centres undefined)
3.5&-0.2 | 0% | C[C@H]1CN([C@@H](C)CO)S(=O)(=O)c2ccc(Br)cc2O[C@@H]1CN(C)Cc1cccc(F)c1
0.1 | 30% | O=Cc1c(Cl)[nH]c(=O)n1-c1ccccc1
-0.9 | 2% | CC12CCC(=O)C=C1C(F)CC1C2C(O)CC2(C)C1CCC2(O)C(=O)CO (centres undefined)
-0.8&-5.1 | 48% | C[C@@H]1CCCCO[C@H](CN(C)C(=O)c2ccccc2)[C@@H](C)CN([C@H](C)CO)C(=O)c2cc(NC(=O)NC3CCCCC3)ccc2O1
-2.8 | -4% | c1ccc2c(c1)Nc1cc3ccccc3cc1O2
3.0 | -1% | CC(=O)c1ccc(OCc2cn(CC(=O)c3ccc(O)cc3)nn2)c(C)c1
4.6 | -3% | Nc1cc2c3ccccc3ccc2c2ccccc12
-1.3 | 0% | CNC(=O)C[C@H]1C(=O)N(c2ccccc2)C[C@@H]1Cc1ccccc1
-0.7 | 5% | COC(=O)[C@@]1(Cc2ccccc2)[C@H]2C(=O)N(Cc3ccccc3)C(=O)[C@H]2[C@H]2CN=C(SCc3ccc(Cl)cc3)N21
-9.0 | 5% | O=C(NC1CCCc2c1cnn2-c1ccccc1F)c1ccncc1 (centres undefined)

Screens as filed in PubChem BioAssay.

Some of the compounds tested; count on the stated rates, not on these rows.
